gsp agonist = activates gsp, the McCune-Albright syndrome mutation; gsp mutant cells, cAMP HTRF, 30 min; control for the full effect not named in the record; Potency, µM (titrated, usually from 76.9 µM), without a hit: top-dose activation (cAMP increase), hits mostly activators; hit rate 0.13% among 340,000; AID 624287; active = well fitted activation curve with a large enough effect; inconclusive = small, poorly fitted or top-dose-only effect, or another doubt; inactive = no such curve, though single readings can be large or run the other way; cell line not stated here;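 note: phosphodiesterase inhibitor Ro 20-1724 added with compounds to block cAMP breakdown; potency is the fitted concentration of half-maximal effect; nearly all actives have a fitted effect of over 60% in size; about a fifth of the inactives were tested at one dose only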
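Cells stably selected in G418 were plated at 2000/well, grown 16-24 hr, then given compounds in DMSO with the PDE inhibitor […] (300 uM solution added) for 30 min at 37C; cAMP was read by HTRF.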
ClpP mod = qHTS Assay for Activators of ClpP. purified B. subtilis ClpP, FRET peptide cleavage, 20 min. Potency, µM (doses to about 57.5 µM), without a hit: top-dose activity change, negative = active. hit rate 1.9% among 340,000; active = well fitted falling curve with a large enough effect; inconclusive = small, poorly fitted or top-dose-only effect; inactive = no such curve, though single readings can be large or run the other way; note: potency is the fitted concentration of half-maximal effect; the source files actives as falling curves though it sought activators and does not explain the sign; nearly all actives have a fitted effect of over 65% in size; many hits overshoot -100%
Target sequence (P80244 whole entry, looked up): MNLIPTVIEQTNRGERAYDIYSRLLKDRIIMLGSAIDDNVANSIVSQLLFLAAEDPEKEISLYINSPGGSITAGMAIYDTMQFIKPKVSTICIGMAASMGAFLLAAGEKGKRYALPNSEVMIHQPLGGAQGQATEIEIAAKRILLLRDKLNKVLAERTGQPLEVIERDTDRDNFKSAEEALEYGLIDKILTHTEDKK
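Purified B. subtilis ClpP, 10 microg/mL final in Tris/HCl pH8 with KCl, BSA, glycerol and Tween-20, cleaved an Abz/nitrotyrosine-quenched decapeptide. Fluorescence (ex 320, em 430) was read at 0 and 20 min at room temperature. Delta was normalized to 5.8 microM ADEP and DMSO/no-enzyme controls.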
Sfp inh = blocks B. subtilis Sfp PPTase activity | Q9F4F7 | Biochemical Sfp PPTase activity, qHTS | Potency, µM, inactives show max response, negative = inhibition, actives largely listed as inhibitors | hit rate 3.5% among 310,000 | AID 1490; active = well fitted inhibition curve with a large enough effect; inconclusive = small, poorly fitted or top-dose-only effect, or another doubt; inactive = no such curve, though single readings can be large or run the other way;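 note: the enzyme is Sfp with the accession as filed and its product quenches rhodamine fluorescence; potency is the fitted concentration of half-maximal effect; 0% = enzyme reaction without inhibitor and -100% = no enzyme wells; top concentration of the series not given in the record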
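Step 1, compound plus 15 nM Sfp-PPTase, 15 min, room temperature. Step 2, add rhodamine-CoA (5 uM) and BHQ-2-YbbR (12.5 uM). Step 3, read 525/598 nm fluorescence at 0 and 30 min.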
CtBP-E1A inh = inhibitors of CtBP/E1A interaction; activity change, % (no concentration beside the values); hit rate 0.49% among 340,000; AlphaScreen GST-E1A/His-CtBP binding, 1536-well; stronger effect = lower value; control for the full effect not named in the record; in the data active means activity change below about -65%; inconclusive means about -30% to -65%; inactive means above about -30%; note: % is set by controls: 0 for no effect and ±100 for the full control effect; compound concentration not given in the record
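AlphaScreen with 125 nM GST-E1A and 125 nM His-CtBP (5X stocks) in Tris pH 8.0, 300 mM NaCl, BSA, Tween 20, TCEP. Compounds preincubated 2 h at 37 deg C, then glutathione donor/nickel acceptor beads added for 1 h at 37 deg C in dark.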
Menin-MLL FL inh = inhibitors of human menin-MLL interaction, wild-type MLL peptide | Fluorescence polarization, fluorescein-MLL peptide displacement from menin | FP activity change, % at 61.4 µM | 290,000 tested, under 10 active | AID 1766; inconclusive = falling polarisation curve, or a change in total fluorescence; inactive = total fluorescence flat and polarisation flat or rising; no compound was filed as active; the % refers to the polarisation; negative = inhibition;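 note: % of control where 0% means no effect; inhibitors lower the polarisation; unlabelled MLL peptide was the positive control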
TRPV1 PAM = potentiators of human vanilloid receptor 1 (TRPV1) | hit rate 0.02% among 320,000 | Q8NER1 | TRPV1-expressing cells, Fluo-8 calcium influx, capsaicin EC20 potentiation; host cell line not named in the record; control for the full effect not named in the record | potentiation, % at 8.33 µM; active means potentiation above 80%; inconclusive means 30% to 80%; inactive means below 30%; note: 0% is about no effect
Target sequence (Q8NER1 whole entry, looked up): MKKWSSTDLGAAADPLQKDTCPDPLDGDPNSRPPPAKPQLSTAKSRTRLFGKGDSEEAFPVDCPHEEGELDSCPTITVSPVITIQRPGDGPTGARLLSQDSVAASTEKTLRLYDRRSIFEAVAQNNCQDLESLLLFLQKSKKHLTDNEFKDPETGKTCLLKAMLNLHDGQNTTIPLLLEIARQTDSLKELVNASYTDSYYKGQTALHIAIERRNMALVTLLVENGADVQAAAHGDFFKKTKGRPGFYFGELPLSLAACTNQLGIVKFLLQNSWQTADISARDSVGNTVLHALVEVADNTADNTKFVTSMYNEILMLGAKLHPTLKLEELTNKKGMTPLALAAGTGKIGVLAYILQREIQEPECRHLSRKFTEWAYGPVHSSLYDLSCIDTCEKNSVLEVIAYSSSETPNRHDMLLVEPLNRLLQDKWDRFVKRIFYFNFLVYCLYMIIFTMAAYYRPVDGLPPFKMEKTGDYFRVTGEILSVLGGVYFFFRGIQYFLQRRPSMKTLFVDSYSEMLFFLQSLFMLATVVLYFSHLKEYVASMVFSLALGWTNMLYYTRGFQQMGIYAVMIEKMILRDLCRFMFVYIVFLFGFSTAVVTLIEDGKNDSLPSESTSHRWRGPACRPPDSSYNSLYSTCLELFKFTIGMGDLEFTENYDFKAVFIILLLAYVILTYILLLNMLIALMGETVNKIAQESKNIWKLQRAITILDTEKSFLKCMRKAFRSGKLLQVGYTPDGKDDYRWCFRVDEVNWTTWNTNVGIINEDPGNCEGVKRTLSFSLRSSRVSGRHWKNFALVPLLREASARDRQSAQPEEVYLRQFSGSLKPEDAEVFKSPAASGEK
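TRPV1-expressing cells were cultured overnight at 35.5C and loaded with Fluo-8 calcium dye for 40 to 90 min at room temperature. After a 10 s baseline, compound was added and calcium influx was read kinetically for 3 min (ex 480/em 520 nm).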
gsp antag = gsp mutant antagonism; gsp-mutant cells, cAMP HTRF, 30 min; control for the full effect not named in the record; Potency, µM (titrated, usually from 76.9 µM), without a hit: at the highest dose activity change, negative = inhibition, most hits filed as inhibitors; hit rate 0.4% among 340,000; AID 624288; active = falling curve of any shape with a large fitted effect; inconclusive = falling curve, mostly with a smaller effect; inactive = flat or rising curve; cell line not stated here;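 note: intracellular cAMP measured with PDE inhibitor Ro 20-1724 present during compound exposure; potency is the fitted concentration of half-maximal effect; % is set by controls: 0 for no effect and ±100 for the full control effect; nearly all actives have a fitted effect of over 65% in size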
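G418-selected cells were plated in DMEM/10% FBS for 16-24 h at 37C, then treated with compounds plus the PDE inhibitor […] (300 uM solution added) for 30 min at 37C. Intracellular cAMP was measured by HTRF after 30 min lysis at room temperature.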
The depositor's hits bear a star; ? = inconclusive; . = not tested or not shown; & = joins results of further samples; [ ] = another dose, or the depositor's remark.

SMILES	gsp agonist	ClpP mod	Sfp inh	CtBP-E1A inh	Menin-MLL FL inh	TRPV1 PAM	gsp antag
CC1CCC/C(=N\NC(=O)COc2ccc(Cl)cc2Cl)C1 (stereo not given)	-24.8%	-0.9%	6.8%	5.7	1.4	.	5.8%
COc1ccc(Cl)cc1NS(=O)(=O)c1cc(Cl)ccc1OC	-35.1%	-2.6%	15.3%	4.3	5.6	18.1	1.1%
Cc1c2n(c3ccccc13)CC/C2=N\O	6.9%[15.4 µM]	-3.7%	2.4%	-0.2	4.8	0.2	1.6%
O=c1[nH]c2ccc(S(=O)(=O)Nc3ccccc3O)cc2[nH]1	-3.9%	.	-5.8%	-2.6	?	-15.0	7.0%
COc1ccc(S(=O)(=O)N2CCN(Cc3cccc(OC)c3OC)CC2)cc1	-1.7%	-1.2%	12.7%	.	-2.5	-12.3	1.2%
CC1Cc2ccccc2N1S(=O)(=O)c1cccc(C(=O)NCc2ccncc2)c1 (stereo not given)	-9.1%	0.8%	.	22.0	.	9.8	-15.0%
CC1(C)CC(=O)c2cnc(NCC3CCCO3)nc2C1 (stereo not given)	11.2%	-0.4%	2.7%	8.3	4.0	-1.0	-1.8%[15.4 µM]
Cc1cc2ncn(C3CC(=O)N(C)C3=O)c2cc1C (stereo not given)	-16.6%	-1.7%	12.1%	-0.6	0.6	-12.1	0.4%
O=C(COC(=O)c1ccc(NS(=O)(=O)c2cccs2)cc1O)NCc1ccccc1	-0.1%[15.4 µM]	1.8%	13.8%	1.8	6.6	1.4	-2.2%
Cc1nnc(SCC(=O)Nc2c(Cl)cccc2Cl)[nH]c1=O	6.7%	7.0%	5.3%	1.2	-4.7	-13.0	5.7%
O=C1CC2(CCCC2)C(=O)N1c1ccc(S(=O)(=O)NCC2CC2)cc1Cl	-6.1%[15.4 µM]	.	12.1%	-2.6	3.7	13.6	3.4%
Cc1cccc2c(=O)oc(-c3ccccc3Cl)nc12	-28.1%	.	4.8%	-3.8	-5.5	1.6	-0.7%
CCC(C)OC1OC(CO)C(O)C(O)C1NC(C)=O (stereo not given)	3.5%	-1.3%	-3.5%	22.5	-0.1	-6.0	9.5%
Cc1ccc(C(=O)Oc2ccccc2N2C(=O)C3CCC(C)CC3C2=O)cc1 (stereo not given)	13.3%	1.6%	2.3%	7.5	4.9	-9.3	-8.2%
Cc1ccc(C)c(N(CC(N)=O)S(C)(=O)=O)c1	16.4%	-1.7%	13.7%	15.0	0.9	1.0	0.3%
CCOC(=O)NC(NC(=S)Nc1ccc(OCC)cc1)C(Cl)(Cl)Cl (stereo not given)	-17.9%	1.1%	5.0%	6.6	.	11.4	13.4%
c1ccc(-c2noc(C34CC5CC(CC(C5)C3)C4)n2)nc1	0.0%	-2.4%	-8.7%	2.4	-8.3	15.6	-11.6%
Cc1c(C(=O)NNC(=O)c2csc(N3CCOCC3)n2)cccc1[N+](=O)[O-]	9.9%	-0.2%	.	1.7	.	8.1	11.0%
CN(C)c1ccc(C(=O)/C=C/c2cccnc2)cc1	-27.1%	0.7%	5.0%	-3.3	-1.9	27.4	-15.8%
O=C(CC(=O)c1ccccc1)CC(O)(C=Cc1ccccc1)c1ccccc1 (stereo not given)	0.4%	.	.	-2.0	.	.	-4.3%
Oc1c(Br)cc(Br)cc1/C=N/N1CCN(Cc2ccccc2)CC1	4.5%	-19.5%	14.9%	9.8	3.5	-6.6	6.7%
CC(C)(C)NC(=O)[C@@H]1C[C@@H]2CCCC[C@@H]2CN1C[C@@H](O)[C@H](Cc1ccccc1)NC(=O)[C@H](CC(N)=O)NC(=O)c1ccc2ccccc2n1	.	-1.1%&0.8%	11.1%&7.6%	-9.4&-3.8	-3.5&0.7	-13.2	?
Cc1cccc(-c2onc3ccc(C4(C)OCCO4)cc23)c1	-46.1%[inhibitor]	-1.1%	?	.	3.5	-9.4	-26.0%
Cc1nn2c(N3CCOCC3)cc(C(C)(C)C)nc2c1-c1ccccc1	2.9%	-1.2%	5.9%	.	-4.7	12.0	0.9%
CC(C)N(Cc1nc(-c2ccccc2)no1)C(=O)c1ccc(Br)o1	7.5%	-4.2%	-1.0%	-10.1	-2.2	-13.7	-27.5%
O=C(NCc1ccncc1)C1CCCN(S(=O)(=O)Cc2ccccc2)C1 (stereo not given)	?	-1.2%	22.4%	-1.6	1.5	-5.4	-3.6%
CCOc1cc(C(=O)NC(C)C2CC3CCC2C3)cc(OCC)c1OCC (stereo not given)	2.8%[15.4 µM]	.	.	4.1	.	.	-32.1%
N#Cc1ccc(OCC(=O)N/N=C2/CC(c3ccccc3)Oc3ccccc32)cc1 (stereo not given)	-19.4%	1.2%	-7.3%	-1.3	-2.5	-7.5	-16.1%
CCOC(=O)N1CCN(c2c(N3CC=C(c4ccccc4)CC3)c(=O)c2=O)CC1	-109.2%[inhibitor]	0.1%	5.5%	1.2	-2.4	-9.1	-21.7%
Cc1occc1C(=O)N/N=C/c1ccccc1[N+](=O)[O-]	-23.0%	.	?	-12.5	-2.9	-7.2	-10.9%
Cc1ccc2c(C)c(C(=O)N(Cc3ccccc3)C3CCS(=O)(=O)C3)oc2c1 (stereo not given)	5.3%[15.4 µM]	-1.2%	10.0%	11.5	2.3	-7.0	?
CC(C)(C)OC(=O)N1O[C@H]2C[C@@H]1[C@@H]1[C@@H]2N=NN1C12CC3CC(CC(C3)C1)C2	.	1.6%	.	-0.3	.	.	-2.0%
Cc1ccc(-c2nc3cc(Br)cnc3nc2-c2ccc(C)cc2)cc1	8.7%[15.4 µM]	.	-5.8%	3.5	-0.9	-2.2	-17.2%
O=C(NC1CCCc2ccccc21)C1CCN(C(=O)c2sccc2-n2cccc2)CC1 (stereo not given)	8.6%	-1.1%	12.1%	-7.3	2.6	-12.6	-21.8%
Cc1nnsc1C(=O)Nc1ccc(Cl)cc1	-21.9%	0.0%	5.1%	-0.9	-0.4	-8.3	5.6%
Cc1ccc(-c2csc(Nc3ccc(C(=O)O)cc3)[n+]2Cc2ccccc2)cc1	-2.8%	.	12.7%	-0.1	3.0	10.0	-11.5%
COc1ccc(NC(=O)O/N=C/c2ccccc2Cl)cc1	-78.8%[inhibitor]	0.8%	15.6%	0.2	?	-7.1	-2.1%
CC1CCN(C(=O)c2cc3ccccc3cc2O)CC1	19.9%	-1.7%	1.0%	-1.3	.	6.1	4.7%
CCOP(=O)(c1ccccc1)C(O)c1ccc(Br)cc1 (stereo not given)	-6.3%[15.4 µM]	.	9.2%	0.3	1.3	0.4	-4.2%
CCOC(=O)CCc1c(C)c2ccc(OCC)c(C)c2oc1=O	-1.5%	31.6µM*	11.2%	10.4	1.8	19.0	4.3%
O=C(Nc1sc2c(c1C(=O)O)CCC2)c1ccccc1F	0.6%	-0.4%	-4.9%	.	2.9	29.6	-28.7%
COc1cccc(OCc2nnc(-c3cccs3)o2)c1	.	.	-0.3%	.	-3.7	?	.
CC(C)/C=C/C(=O)N1CCC(N2CCC(C(=O)N3CCOCC3)CC2)CC1	4.6%	.	7.2%	-18.0	0.4	5.6	10.6%
COC(=O)CCSc1cc([N+](=O)[O-])cc2c1c(C1OCCS1)nn2-c1ccccc1 (stereo not given)	5.0%	0.2%	3.9%	-18.4	?	0.8	?
c1ccc(C[n+]2ccc3ccccc3c2)cc1	11.7%[15.4 µM]	0.5%	.	10.4	.	.	9.2%
CC(=O)Nc1ccc(SCC(=O)Nc2ccc3c(c2)OCCO3)cc1	0.6%	.	.	0.3	.	.	-26.1%
O=C(CSc1ccc2nnc(-c3ccccc3)n2n1)N1CCCCC1	49.3%[15.4 µM]	.	.	0.0	.	.	5.7%
COC(=O)c1c(C(=O)OC)c(-c2ccccc2)n2c1CCC2	-27.4%	-1.2%	-13.2%	-6.3	4.2	-11.3	-2.5%

Record cards, as listed above. Order of values: gsp agonist	ClpP mod	Sfp inh	CtBP-E1A inh	Menin-MLL FL inh	TRPV1 PAM	gsp antag
`c1ccc(C[n+]2ccc3ccccc3c2)cc1` is listed with 11.7%[15.4 µM]	0.5%	.	10.4	.	.	9.2%
`O=C(Nc1sc2c(c1C(=O)O)CCC2)c1ccccc1F` is listed with 0.6%	-0.4%	-4.9%	.	2.9	29.6	-28.7%

Continued.
SMILES	gsp agonist	ClpP mod	Sfp inh	CtBP-E1A inh	Menin-MLL FL inh	TRPV1 PAM	gsp antag
Cc1ccc2cc(CN(Cc3ccco3)C(=O)c3cccs3)c(=O)[nH]c2c1	-46.3%[inhibitor]	?	25.1µM*	3.2	1.1	-6.6	6.1%
O=C(CSCc1nc2ccccc2[nH]1)Nc1ccc(Oc2ccccc2)cc1	-49.4%[inhibitor]	-0.4%	16.6%	1.4	4.2	-0.5	-0.6%
Cc1cc(CNC(=O)CC2C(=O)NCCN2Cc2ccccc2)nn1C (stereo not given)	30.0%	-11.0%	6.0%	1.2	.	-4.7	16.7%
Cc1nc(NCc2ccccc2)[nH]c(=O)c1CCC(C)C	?	-0.5%	-10.3%	2.1	1.3	-0.6	5.8%
CCn1c(SCC(=O)N/N=C\c2ccccc2OCC(=O)O)nnc1-c1ccc(Cl)cc1	-13.5%[15.4 µM]	.	1.3%	9.3	-0.8	6.8	9.6%
Cc1ccc(C2CC(=O)c3cnc(NC(=O)c4ccco4)nc3C2)cc1 (stereo not given)	-3.8%	0.5%	7.3%	-1.4	3.6	-15.4	-7.4%
O=C(OCC(=O)c1ccccc1Cl)c1cnccn1	-14.3%	6.4%	1.6%	-6.6	-1.6	12.7	7.5%
CCOc1ccc(OCC(=O)OC(C)C(=O)NC2CCCCC2C)cc1 (stereo not given)	0.0%	1.8%	.	-3.8	.	-13.0	-4.0%
COCCOC(=O)c1c(C)oc2ccc(OC(=O)COc3c(F)c(F)c(F)c(F)c3F)cc12	27.1%	-7.2%	-7.9%	1.8	1.6	17.1	21.0%
COc1ccc(CNC2CCCCC2)cc1	-11.7%	-2.0%	-16.3%	3.2	0.9	-3.7	16.0%
CSc1ccc(S(=O)(=O)N2CCC(C(=O)Nc3ccc(NC(C)=O)cc3)CC2)cc1	5.7%	.	-2.2%	3.4	3.0	-6.6	-1.5%
COC(=O)C1CCN(C(=O)CCC2CCCCC2)CC1	-31.5%	-1.6%	4.8%	11.2	-0.8	-11.8	6.0%
